# Assay outcomes: PubChem BioAssay, several laboratories
# ugtP null kill – compounds lethal to S. aureus RN4220 ugtP deletion mutant; OD600 growth, 16 h; some inactives read as strong as hits; growth inhibition, % (test concentration not listed); hit rate 0.54% among 330,000;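 active means z-score under -3 and OD600 up to 0.15 on both plates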;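 further: plate controls were untreated wells for no effect and antibiotic for full effect; wells of about 80 µL received 100 nL stock; the first replicate is given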
# BJeLR viability – kills HRASV12-expressing BJeLR cells. BJeLR (HRASV12) viability, CellTiter-Glo ATP luminescence, 48 h; reference of the scale not given here. inhibition, % (test concentration not listed). AID 1554. hit rate 0.17% among 300,000;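 active means replicate mean above 50%; inconclusive means above 50% but judged a plate artefact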;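 further: 50 nL library stock added to about 25 µL; numbers are from one replicate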
# Autofluor counter – flagged as autofluorescent in microsphere protease counterscreen. compound autofluorescence counterscreen, microsphere flow cytometry; stronger effect = higher value. fluorescence intensity (concentration not given with the values). hit rate 3.1% among 360,000. AID 624483;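 active means at least 3 SD above the mean of all compounds, about 16000 in these data; inconclusive means too few beads counted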;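 further: 100 nL of 1 mM stock went into each well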
# Mtb hypoxia inh – reduces hypoxia-regulated biosensor signal in M. tuberculosis; M. tuberculosis hypoxia-regulated fluorescent reporter, fluorescence; fluorescence inhibition, % (test concentration not listed); hit rate 0.1% among 300,000; AID 1159583;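 active means 35 to 45% if threefold the growth effect, above 45% if 1.5-fold the growth effect; inactive means the rest, general growth blockers included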;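 further: wells of about 50 µL received 100 nL stock; 0% = vehicle wells and 100% = reference inhibitor wells; whole bacteria with a GFP reporter of the hypoxia response; strong numbers were not always called active; many hits fall short of the cut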
# Sa RN4220 lethal – kills Staphylococcus aureus RN4220; S. aureus RN4220 growth, OD600, 16 h; inhibition, % (concentration not given with the values); hit rate 0.33% among 330,000; AID 1259311;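 active means z-score of -3 or lower and OD600 up to 0.18 on both plates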;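 further: plate controls were untreated cells for no effect and reference antibiotic for full effect; stock transfer was 100 nL into about 80 µL; one replicate is shown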
# PrP UTR inh – suppresses PrP 5' UTR mRNA reporter expression; hit rate 0.35% among 340,000; cell-based PrP 5' UTR mRNA reporter, plate reader; inhibition, % (concentration not given with the values); AID 488862;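 active means every replicate at 50% or more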;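 further: 0 = median of the neutral control wells; tested in H4 reporter cells; numbers are from one replicate; inactives centre near -14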
# Mtb hypoxia inh growth – recorded beside Mtb hypoxia inh, whose call it bears; growth inhibition, %; measured here: M. tuberculosis growth (absorbance);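 0% = vehicle and 100% = reference antibiotic; read after six days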
# * marks the source's active call; other numbers are inactive results; ? = inconclusive; nt = no result given.
structure,Mtb hypoxia inh growth,Autofluor counter,Mtb hypoxia inh,ugtP null kill,PrP UTR inh,BJeLR viability,Sa RN4220 lethal
COCCOC(=O)C1=C(C)NC(=O)CC1c1cc2c(cc1Br)OCO2 (stereo unspecified),-3,22165*,-1,-3,-26,-6,1.5
CC1=NN(c2ccccc2)C(=O)C1C=Nc1ccc(N(C)C)cc1 (stereo unspecified),2,3918,2,5,-34,-4,2.7
Cc1cc(C(=O)N2CCN(c3cccc(Cl)c3)CC2)c(C)o1,nt,4003,nt,3,-30,1,-3.2
Cc1cc(C)nc(/N=C(\N)Nc2ccc(-c3ccccc3)cc2)n1,nt,4969,nt,nt,-26,8,nt
COc1cc2c(=O)n(CCC(=O)NCC3CCCO3)c(=O)n(CC(=O)c3ccc(Cl)cc3)c2cc1OC (stereo unspecified),10,4339,10,16,-17,-8,7.3
COc1ccc(-n2c(CCC(=O)O)ccc2-c2ccccc2)cc1,11,4109,14,4,-15,1,8.8
COc1ccc(NC(=O)/C(C#N)=C\c2ccc(Br)o2)cc1,nt,4169,nt,nt,-57,17,nt
CS(=O)(=O)N(CC(=O)NCCc1ccccc1)c1cccc([N+](=O)[O-])c1,11,3428,16,2,-73,6,1.8
O=C1c2ccccc2CC1Sc1nnc(-c2ccncc2)o1 (stereo unspecified),-9,7011,-10,-1,-15,-4,1.4
CN(Cc1nc2ccccc2c(=O)[nH]1)C(=O)c1ccc(S(=O)(=O)N(C)C)cc1,8,20390*,8,1,-16,-9,3.3
COC(=O)C(NC(=O)OC1C(=O)c2cc(Br)ccc2OC1c1cccc(OC)c1)C(C)C (stereo unspecified),3,nt,11,-3,nt,nt,1.8
Cc1[nH]n(-c2ccccc2)c(=O)c1C1(C(F)(F)F)C(=O)N(c2ccc(F)cc2)C2=C1C(=O)CC(C)(C)C2 (stereo unspecified),-2,2501,0,67,-10,1,-14
CC(C(=O)OCC(=O)c1ccccc1)N1C(=O)c2ccccc2C1=O (stereo unspecified),11,4701,6,4,-8,-8,7.4
CCCN(C(=O)CSc1nnc(N)s1)c1c(N)n(Cc2ccccc2)c(=O)[nH]c1=O,4,3666,7,5,-7,nt,5.5
Clc1ccc(-c2nc3nc4ccccc4nc3n2Cc2ccco2)cc1,nt,4443,nt,6,-62,nt,2.0
O=c1[nH]nc(Cc2ccc([N+](=O)[O-])cc2)c2ccccc12,2,3456,12,-3,-3,-9,-1.2
O=C(CSc1nc(=O)n(CCCN2CCOCC2)c2c1CCCC2)Nc1ccccc1Cl,11,5884,-5,3,-12,-3,3.5
Cc1ccc(-c2cnc(NC(=O)c3cccc(Br)c3)s2)c(C)c1,-1,6981,-9,0,-13,-9,-14
C#CCOC1CC(n2ccc(NC(=O)c3ccccc3)nc2=O)OC1CO (stereo unspecified),12,nt,20,16,nt,nt,-0.2
Cc1cc(NCc2ccccn2)ccc1Br,3,5289,12,-6,-71,-2,8.0

# An excerpt of these results, with each value named.
O=c1[nH]nc(Cc2ccc([N+](=O)[O-])cc2)c2ccccc12
  Mtb hypoxia inh growth: 2; Autofluor counter: 3456; Mtb hypoxia inh: 12; ugtP null kill: -3; PrP UTR inh: -3; BJeLR viability: -9; Sa RN4220 lethal: -1.2
O=C(CSc1nc(=O)n(CCCN2CCOCC2)c2c1CCCC2)Nc1ccccc1Cl
  Mtb hypoxia inh growth: 11; Autofluor counter: 5884; Mtb hypoxia inh: -5; ugtP null kill: 3; PrP UTR inh: -12; BJeLR viability: -3; Sa RN4220 lethal: 3.5

# Later entries
structure,Mtb hypoxia inh growth,Autofluor counter,Mtb hypoxia inh,ugtP null kill,PrP UTR inh,BJeLR viability,Sa RN4220 lethal
Cc1ccc(C(=O)NS(=O)(=O)c2ccc(N=NN(C)C)cc2)cc1,-10,4583,-3,3,-17,12,1.6
O=C1CCC(=O)N1c1ccc(NCCc2ccccc2F)c([N+](=O)[O-])c1,-5,3734,-1,4,-11,5,2.5
COc1cc(OC)c(NC(=O)CCCNC(=O)Cn2cnc3sc(C)c(C)c3c2=O)cc1Cl,8,5744,-5,9,-10,-2,0.9
Cc1ccccc1NN1C(=O)C=CC1=O,nt,2451,nt,1,-18,-1,8.3
CCNC(=S)Nc1ccc(Cc2ccncc2)cc1,31,3352,15,-1,-4,-8,2.8
O=C(CCCOc1ccccc1)N1CCCCC1,nt,2983,nt,11,-31,2,3.8
CC1(C)Oc2ccc3ccc(=O)oc3c2/C(=C/Nc2ccccc2)C1=O,nt,3183,nt,3,-9,-2,17
Cc1ccc(C)c(OCCC(=O)Nc2cccc(S(=O)(=O)N3CCCC3)c2)c1,6,?,11,2,-30,8,-1.5
Nc1c(C(=O)O)ccc2c1C(=O)c1ccccc1C2=O,10,4483,11,11,-8,-7,29
CN(C)S(=O)(=O)c1ccc(C(=O)Nc2nc(-c3cccs3)cs2)cc1,4,5680,0,-9,-28,8,8.7
CC(C)(C)NC(=S)NC(C)(C)C,-1,3488,-6,0,-25,14,-1.8
CC1=Nn2c(nnc2-c2cc(C)[nH]n2)SC1,nt,3740,nt,9,-10,-4,2.9
COC(=O)c1[nH]c2cc(C)ccc2c1NC(=O)CN1CCCc2ccccc21,-4,3703,2,-13,2,6,0.5
CCOC(=O)C1(C(=O)OCC)NC(=O)CC1C(C)C (stereo unspecified),8,3343,11,3,-11,nt,6.2
COc1ccccc1Nc1nnc(SCC(=O)N2CCCC2)s1,6,23377*,11,-3,-24,-11,7.2
CSc1cccc(NC(=S)NC(=O)c2cccnc2)c1,8,4153,0,6,5,-2,2.3
Cc1ccc(C(=O)Nc2ccc3c(c2)OCCO3)cc1S(=O)(=O)N1CCOCC1,7,2748,6,12,-40,nt,2.0
COC(=O)CSc1nnc(CNC(=O)c2ccc(S(=O)(=O)N3CCOCC3)cc2)n1C,0,2007,-4,9,-14,-4,3.7
COc1ccc(NC(=O)CSc2nc3[nH]ncc3c(=O)[nH]2)c(OC)c1,-5,5997,2,1,-20,7,1.4
COC(=O)C1=C(C)Nc2nnnn2C1c1cccs1 (stereo unspecified),8,19852*,7,-2,-16,7,5.3
Cc1ccc(C(C)C)c(OCC(=O)NNC2=CC(=O)CC(C)(C)C2)c1,-5,3341,-7,1,-12,10,4.4
COc1ccc(C)cc1S(=O)(=O)N1CCC(C(=O)NCCc2ccccc2)CC1,nt,2390,nt,3,-29,0,3.7
Cc1cccc(-n2ccnc2CN2CCN(C3CCCC3)C(CCO)C2)c1 (stereo unspecified),5,4411,8,5,-7,16,3.6
Cc1ccc(NC(=O)CNc2ccccc2N2CCCC2=O)cc1S(=O)(=O)N1CCCCC1,-1,3889,-4,2,-20,nt,2.7
COC(=O)c1cc(NC(=O)COC(=O)CN2C(=O)C3CC=CCC3C2=O)cc(C(=O)OC)c1 (stereo unspecified),0,5432,7,-2,-50,nt,2.8
CN=C1N(C)C[C@@H]2[C@@H]3C(=O)N(C)C(=O)[C@@H]3[C@](Cc3ccccc3)(C(=O)OC)N12,4,3684,-7,2,28,nt,2.9
Cn1nc(C(=O)NC2CCCN(Cc3ccccc3F)C2)c2ccccc2c1=O (stereo unspecified),4,5762,-1,5,-14,0,-0.5
Cc1ccc(-c2nc3ccccc3c(=O)n2NC(=O)COc2ccccc2)cc1,7,2389,4,1,-4,8,3.7
CCCC1Cc2c(sc(N)c2C#N)CO1 (stereo unspecified),1,4441,5,6,-20,-11,9.6
CC(=O)C1=C(O)C(=O)N(c2ccc(S(N)(=O)=O)cc2)C1c1cccc([N+](=O)[O-])c1 (stereo unspecified),-3,4060,1,0,1,-1,0.0
CC(=O)N1CCN(C(=O)c2ccccc2NS(=O)(=O)c2ccc(F)cc2)CC1,1,8067,6,4,-57,nt,4.9
O=C(c1cccnc1)N1CCN(c2ccc([N+](=O)[O-])cc2Cl)CC1,18,2577,1,-9,-19,-1,-1.6
CCc1nc2c(oc3ccccc32)c(=O)[nH]1,5,2893,5,5,-15,0,3.1
O=c1cc(-c2ccc(O)cc2)oc2c1ccc1ccccc12,6,8566,-5,-6,0,nt,5.3
O=C(CSc1ncccn1)N1CCCC1,6,5481,3,1,-16,0,2.5
COc1ccc(C2C=C(C)Nc3nc4ccccc4n32)cc1 (stereo unspecified),0,4719,-5,-1,-36,nt,-1.9
CC(C(=O)Nc1ccc(C#N)cc1)N(C)CC(=O)N(C)c1c(N)n(Cc2ccccc2)c(=O)[nH]c1=O (stereo unspecified),-2,3946,12,2,-57,nt,0.7
O=C(CCc1n[nH]c(=O)[nH]c1=O)NN=Cc1ccc(Br)o1,5,nt,8,0,nt,nt,1.3
COc1ccc(-c2nc(N)n(C(=O)Cc3ccccc3)n2)cc1,nt,4423,nt,10,-14,0,-2.1
CC[n+]1ccc(/C=C/c2c[nH]c3ccccc23)cc1,nt,3895,nt,nt,-1,7,nt
O=C(c1c(Cl)cccc1Cl)N1CCCCCC1,nt,3960,nt,-8,-11,3,2.5
CC1(C)CC(=O)C=C(NC2CCCCCC2)C1,11,5281,15,2,-26,8,7.5
CCN1C(=O)[C@H]2[C@@H](c3ccccc3)N3C(=O)N(c4cccc(F)c4)C(=O)[C@@]3(CC(C)C)[C@H]2C1=O,nt,3763,nt,nt,-13,-12,nt
N#Cc1ccsc1NC(=O)C1CCN(C(=O)c2ccc(Cl)cc2)CC1,5,6047,-4,-11,-9,1,-3.1
CN(C(=O)c1ccco1)c1nnc(C23CC4CC(CC(C4)C2)C3)s1,14,6548,-1,-19,-57,-6,-16
O=C(/C=C/c1cccc([N+](=O)[O-])c1)NCc1ccco1,12,2579,8,2,-14,-12,4.9
Cc1ccc(NCC(=O)N/N=C/c2cc3ccccc3nc2Cl)cc1,nt,8340,nt,nt,-29,-5,nt
Cc1noc(C)c1COc1ccccc1C(=O)N1CCN(S(=O)(=O)c2ccc(F)c(F)c2)CC1,-3,2882,2,12,-2,nt,8.1
CCc1cc2cc(C)ccc2nc1SCC(=O)NNC(=O)c1ccco1,7,3629,-2,14,-20,-3,3.9
CC(OC(=O)CCCN=C1NS(=O)(=O)c2ccccc21)C(=O)Nc1ccccc1[N+](=O)[O-] (stereo unspecified),0,4140,10,14,-15,-4,1.5

# The results go on.
structure,Mtb hypoxia inh growth,Autofluor counter,Mtb hypoxia inh,ugtP null kill,PrP UTR inh,BJeLR viability,Sa RN4220 lethal
COc1ccc(C(=O)Nc2cccc3c2CCCC3)cc1OC,8,3940,-2,-3,-39,-10,2.3
O=C(Nc1ccccc1C(=O)NN=Cc1ccco1)c1ccccc1,7,nt,4,16,nt,nt,0.1
COc1cc2c(cc1OC)CC(C(=O)NCc1ccccc1)NC2 (stereo unspecified),0,3243,2,4,-12,1,2.6
CC(C)c1nnc(NC(=O)CCC(=O)NCc2cccs2)s1,5,nt,-2,0,3,-5,8.5
CCC(C)NS(=O)(=O)c1ccc(S(=O)(=O)N(CC(=O)Nc2ccccc2)Cc2ccco2)cc1 (stereo unspecified),5,10987,2,-7,-22,4,2.6
COc1ccc(-c2cc(C(=O)N3CCN(S(=O)(=O)c4ccccc4)CC3)[nH]n2)cc1,nt,6051,nt,32,-20,2,-3.7
CCOc1ccc(N2CC(NC(=O)c3cccc4ccccc34)CC2=O)cc1 (stereo unspecified),8,5370,5,4,-4,-10,3.5
CN=C1c2cc3cc(OC)ccc3n2CCN1Cc1ccccc1,-21,9163,-78,2,-9,-9,2.6
CC(C)C(=O)Nc1ccc(C(=O)Nc2nnc(C(C)(C)C)s2)cc1,10,3563,2,9,-37,-4,3.5
Cc1cccc(OCCCCCn2ccnc2)c1C,nt,14577,nt,7,-12,8,6.2
O=C(COC(=O)c1ccc(O)cc1)NC1CCCCCC1,7,3529,10,2,-12,nt,2.6
NS(=O)(=O)c1ccc(NC(=S)NC(=O)/C=C/c2ccco2)cc1,nt,2543,nt,nt,-4,-5,nt
FC(F)(F)c1cccc(CNc2ncccc2-c2nc3cc(Cl)ccc3o2)c1,1,9864,1,0,-20,-3,-9.3
CC(=O)Nc1ccc(C(=O)OCC(=O)N2CCC(Cc3ccccc3)CC2)cc1,9,3778,8,-2,-17,nt,3.5
Cc1ccccc1CN1[C@@H]2c3ccccc3C[C@@H]2OCCS1(=O)=O,nt,3850,nt,nt,-26,-8,nt
